Assay outcomes deposited in PubChem BioAssay by Broad Institute.
HIV Env fusion = inhibitors of HIV Env-mediated cell fusion. HeLa-JRFL Env/CEM21 cell fusion, luciferase. inhibition, % at 12.3 µM. 1.1% of 360,000 active. AID 651610;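 active = mean replicate inhibition score of at least 50 and every replicate individually at or above 50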;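 note: 0% = plate neutral controls and 100% = maraviroc near 300 nM; one replicate is shown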
Yeast UUG start = alters start codon recognition fidelity in yeast; S. cerevisiae UUG-firefly luciferase reporter, luminescence/redox ratio; activity score, % at 18.7 µM; 0.13% of 350,000 active; AID 602363;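 active = replicate mean at a twofold rise or more, about +100% in these data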;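 note: firefly luciferase made from a UUG start codon reports start codon fidelity; reporter light over untreated wells divided by growth signal over untreated wells; some hits fall short of that in this replicate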
* = called active by the depositor; [ ] = dose if it differs, or a comment. Not all compounds are listed (hit frequency here may not be typical).

Sequence of screens: HIV Env fusion | Yeast UUG start
> C[C@H](CO)N1C[C@H](C)[C@@H](CN(C)CC2CCCCC2)OCCCC[C@H](C)Oc2ccc(NS(=O)(=O)c3ccccc3)cc2C1=O
    -3[16.7 µM] | 50
> O=C(N[C@H]1CC[C@H](CC(=O)N2CCCCC2)O[C@@H]1CO)c1ccc2c(c1)OCO2
    6[16.7 µM] | -8
> Cc1ccc(S(=O)(=O)N(C)C[C@H]2Oc3ccc(NC(=O)Cc4cn(C)c5ccccc45)cc3C(=O)N([C@@H](C)CO)C[C@H]2C)cc1
    -4[16.7 µM] | 6
> Cc1noc(C)c1NC(=O)Nc1ccc2c(c1)C(=O)N([C@H](C)CO)C[C@@H](C)[C@H](CN(C)S(=O)(=O)c1cn(C)cn1)OCCCC[C@H](C)O2
    -6[16.7 µM] | 4
> O=C(N[C@@H]1CC[C@H](CCNS(=O)(=O)c2ccc(F)cc2)O[C@H]1CO)c1ccccn1
    -2[16.7 µM] | -7
> CC(C)NC(=O)N(C)C[C@@H]1Oc2ccc(NC(=O)NC3CCCCC3)cc2C(=O)N([C@H](C)CO)C[C@H]1C
    22[16.7 µM] | -9
> C/C=C/c1ccc2c(c1)O[C@H](CN(C)C(=O)Nc1cc(F)ccc1F)[C@@H](C)CN([C@H](C)CO)S2(=O)=O
    -12[16.7 µM] | 11
> Cc1ccc(S(=O)(=O)Nc2ccc3c(c2)C(=O)N([C@@H](C)CO)C[C@H](C)[C@H](CN(C)C(=O)C2CCCCC2)OCCCC[C@@H](C)O3)cc1
    -12[16.7 µM] | 5
> COc1ccc(NC(=O)N(C)C[C@H]2Oc3ncc(-c4ccc(C#N)cc4)cc3C(=O)N([C@@H](C)CO)C[C@H]2C)cc1
    -15[16.7 µM] | 16
> C[C@@H]1CN([C@@H](C)CO)C(=O)c2cccc(NS(=O)(=O)c3cccs3)c2O[C@@H]1CN(C)S(C)(=O)=O
    17[16.7 µM] | -10
> COc1ccc(S(=O)(=O)N(C)C[C@H]2Oc3c(NC(=O)c4nc5ccccc5s4)cccc3C(=O)N([C@@H](C)CO)C[C@H]2C)cc1
    -27[16.7 µM] | 19
> COc1ccccc1S(=O)(=O)N[C@H]1CC[C@@H](CCNC(=O)C2CCC2)O[C@H]1CO
    -13[16.7 µM] | 22
> COCCNC(=O)C[C@@H]1CC[C@H]2[C@@H](COc3ccc(NC(=O)C4CCCC4)cc3C(=O)N2C)O1
    -5[16.7 µM] | -9
> C[C@@H]1CN([C@@H](C)CO)C(=O)Cc2cc(NC(=O)Cn3cnnn3)ccc2O[C@@H]1CN(C)S(C)(=O)=O
    0[16.7 µM] | -12
> Cc1ccc(S(=O)(=O)N(C)C[C@@H]2OCCCC[C@H](C)Oc3ccc(NS(=O)(=O)c4ccc(Cl)cc4)cc3C(=O)N([C@@H](C)CO)C[C@H]2C)cc1
    -63[16.7 µM] | 15
> COc1ccccc1-c1ccc2c(c1)O[C@H](CN(C)CC1CCOCC1)[C@H](C)CN([C@@H](C)CO)S2(=O)=O
    -17[16.7 µM] | -11
> CCC(=O)Nc1ccc2c(c1)C(=O)N(C)[C@H]1CC[C@@H](CC(=O)NCC3CCCCC3)O[C@@H]1CO2
    -3[16.7 µM] | 22
> O=C(N[C@H]1CC[C@H](CCn2cc(Cc3ccccc3)nn2)O[C@@H]1CO)c1cnccn1
    -2[16.7 µM] | -26
> C/C=C/c1cnc2c(c1)C(=O)N([C@@H](C)CO)C[C@@H](C)[C@H](CN(C)S(=O)(=O)c1ccc(OC)cc1)O2
    7[16.7 µM] | -6
> CCCN(C)C[C@H]1OCCCC[C@H](C)Oc2ccc(NC(=O)Cc3ccccc3)cc2C(=O)N([C@@H](C)CO)C[C@H]1C
    4[16.7 µM] | 10
> O=C(C[C@@H]1CC[C@@H](NS(=O)(=O)c2ccc(F)cc2)[C@H](CO)O1)NCCN1CCCCC1
    -15[16.7 µM] | 1
> C[C@@H]1CN([C@@H](C)CO)S(=O)(=O)c2ccc(-c3ccc(C(=O)N(C)C)cc3)cc2O[C@H]1CN(C)C(=O)C1CCCCC1
    -26[16.7 µM] | 13
> C/C=C/c1cnc2c(c1)C(=O)N([C@@H](C)CO)C[C@H](C)[C@H](CN(C)Cc1ccc(F)cc1)O2
    -3[16.7 µM] | -1
> C[C@H]1CCCCO[C@H](CN(C)Cc2ccc(C(=O)O)cc2)[C@@H](C)CN([C@@H](C)CO)C(=O)c2cc(NS(=O)(=O)c3ccccc3)ccc2O1
    -12[16.7 µM] | 1
> CC(C)CC#Cc1cnc2c(c1)C(=O)N([C@H](C)CO)C[C@H](C)[C@@H](CN(C)S(=O)(=O)c1cccs1)O2
    14[16.7 µM] | -4
> CN(C)CCCNC(=O)C[C@H]1CC[C@@H]2[C@H](COC[C@H](O)CN2Cc2cccc(F)c2)O1
    6[16.7 µM] | -3
> CC(C)NC(=O)N(C)C[C@H]1Oc2c(NC(=O)c3ccc(-c4nccs4)cc3)cccc2C(=O)N([C@@H](C)CO)C[C@@H]1C
    5[16.7 µM] | 6
> Cc1ccc(S(=O)(=O)Nc2ccc3c(c2)C(=O)N([C@@H](C)CO)C[C@@H](C)[C@H](CN(C)Cc2ccccc2)OCCCC[C@@H](C)O3)cc1
    12[16.7 µM] | 9
> C[C@@H]1CCCCO[C@@H](CN(C)C(=O)Nc2ccc(F)cc2)[C@@H](C)CN([C@H](C)CO)C(=O)c2cc(NC(=O)C3CCCCC3)ccc2O1
    -14[16.7 µM] | -3
> C[C@@H]1CCCCO[C@H](CN(C)S(=O)(=O)c2cccs2)[C@H](C)CN([C@@H](C)CO)C(=O)c2cc(NC(=O)Cc3ccccc3)ccc2O1
    -35[16.7 µM] | -2

Complete entries, looked up by structure. Order of screens: HIV Env fusion, Yeast UUG start
CC(C)CC#Cc1cnc2c(c1)C(=O)N([C@H](C)CO)C[C@H](C)[C@@H](CN(C)S(=O)(=O)c1cccs1)O2 reads 14[16.7 µM], -4
C[C@@H]1CCCCO[C@@H](CN(C)C(=O)Nc2ccc(F)cc2)[C@@H](C)CN([C@H](C)CO)C(=O)c2cc(NC(=O)C3CCCCC3)ccc2O1 reads -14[16.7 µM], -3
CN(C)CCCNC(=O)C[C@H]1CC[C@@H]2[C@H](COC[C@H](O)CN2Cc2cccc(F)c2)O1 reads 6[16.7 µM], -3
C[C@H]1CCCCO[C@H](CN(C)Cc2ccc(C(=O)O)cc2)[C@@H](C)CN([C@@H](C)CO)C(=O)c2cc(NS(=O)(=O)c3ccccc3)ccc2O1 reads -12[16.7 µM], 1
O=C(C[C@@H]1CC[C@@H](NS(=O)(=O)c2ccc(F)cc2)[C@H](CO)O1)NCCN1CCCCC1 reads -15[16.7 µM], 1

(list continues)
smiles,HIV Env fusion,Yeast UUG start
Cc1ccc(S(=O)(=O)NCC[C@@H]2CC[C@H](NC(=O)c3ccccn3)[C@@H](CO)O2)cc1,-5[16.7 µM],-9
C[C@@H]1CN([C@@H](C)CO)C(=O)c2cc(NC(=O)Nc3ccc(F)cc3)ccc2O[C@@H]1CN(C)Cc1ccc(-c2ccccc2)cc1,-2[16.7 µM],-1
C[C@H]1CN([C@@H](C)CO)S(=O)(=O)c2ccc(C#CC3CCCC3)cc2O[C@@H]1CN(C)C(=O)Cc1ccncc1,-27[16.7 µM],18
C[C@@H]1CN([C@H](C)CO)C(=O)c2cccc(NC(=O)C3CCOCC3)c2O[C@H]1CN(C)Cc1ccc(C(=O)O)cc1,-1[16.7 µM],-16
O=C(C[C@H]1C[C@H]2c3cc(NS(=O)(=O)c4ccc(F)cc4)ccc3O[C@H]2[C@H](CO)O1)NCc1cccc(F)c1,21[16.7 µM],25
COCC(=O)N(C)C[C@@H]1Oc2cc(-c3ccc(C)cc3)ccc2S(=O)(=O)N([C@H](C)CO)C[C@@H]1C,-8[16.7 µM],-7
CNC[C@H]1Oc2cc(C#Cc3ccccc3OC)ccc2S(=O)(=O)N([C@H](C)CO)C[C@@H]1C,40[16.7 µM],-1
CCCC#Cc1ccc2c(c1)O[C@H](CN(C)Cc1ccncc1)[C@@H](C)CN([C@H](C)CO)S2(=O)=O,32[16.7 µM],-6
O=C(C[C@H]1CC[C@@H](NC(=O)c2cccnc2)[C@H](CO)O1)NCc1ccc(Cl)c(Cl)c1,0[16.7 µM],14
CNC[C@@H]1Oc2cc(-c3cncnc3)ccc2S(=O)(=O)N([C@H](C)CO)C[C@H]1C,-21[16.7 µM],10
Cc1noc(C)c1NC(=O)Nc1ccc2c(c1)C(=O)N([C@@H](C)CO)C[C@H](C)[C@@H](CN(C)Cc1ccc(C(=O)O)cc1)OCCCC[C@H](C)O2,-19[16.7 µM],-8
CN1C(=O)c2cc(NC(=O)C3CC3)ccc2OC[C@@H]2O[C@H](CC(=O)NCC3CCCCC3)CC[C@@H]21,25[16.7 µM],5
CC(C)NC(=O)Nc1ccc2c(c1)C(=O)N([C@H](C)CO)C[C@@H](C)[C@@H](CN(C)S(=O)(=O)c1cn(C)cn1)O2,-9[16.7 µM],-3
C[C@H]1CN([C@@H](C)CO)C(=O)Cc2cc(NC(=O)Nc3ccc4c(c3)OCO4)ccc2O[C@@H]1CN(C)C(=O)Nc1ccc(F)cc1,-13[16.7 µM],4
C[C@@H]1CCCCO[C@@H](CN(C)C(=O)NC2CCCCC2)[C@@H](C)CN([C@H](C)CO)C(=O)c2cc(NC(=O)Nc3ccc4c(c3)OCO4)ccc2O1,-20[16.7 µM],-4
C[C@@H]1CN([C@@H](C)CO)C(=O)c2cc(-c3ccc(F)cc3)cnc2O[C@@H]1CN(C)Cc1ccccn1,-7[16.7 µM],-16
O=C(C[C@H]1CC[C@@H]2[C@H](COC[C@H](O)CN2Cc2ccc(F)cc2)O1)NCc1ccncn1,3[16.7 µM],-6
COc1ccc(S(=O)(=O)Nc2ccc3c(c2)CC(=O)N([C@H](C)CO)C[C@H](C)[C@@H](CN(C)S(=O)(=O)c2ccccc2)O3)cc1,1[16.7 µM],-2
C[C@@H]1CN([C@H](C)CO)C(=O)c2cc(N(C)C)ccc2O[C@@H]1CN(C)S(=O)(=O)c1ccccc1,-6[16.7 µM],4
O=C(C[C@H]1C=C[C@H](NC(=O)CN2CCOCC2)[C@@H](CO)O1)NC1CCCCC1,6[16.7 µM],5
Cc1noc(C)c1S(=O)(=O)Nc1ccc2c(c1)CC(=O)N([C@H](C)CO)C[C@H](C)[C@H](CN(C)C(=O)NC1CCCCC1)O2,0[16.7 µM],4
O=C(C[C@H]1CC[C@H](NC(=O)Cc2ccccn2)[C@H](CO)O1)NCCc1ccccc1,2[16.7 µM],-12
C[C@H](CO)N1C[C@H](C)[C@@H](CN(C)Cc2ccc(C(F)(F)F)cc2)Oc2ccc(NS(C)(=O)=O)cc2CC1=O,26[16.7 µM],-15
C[C@H]1CN([C@@H](C)CO)S(=O)(=O)c2ccc(/C=C/c3ccccc3)cc2O[C@H]1CN(C)C,-13[16.7 µM],-1
CNC[C@H]1OCCCC[C@H](C)Oc2ccc(NS(=O)(=O)c3ccc(OC)cc3)cc2C(=O)N([C@H](C)CO)C[C@@H]1C,-9[16.7 µM],-6
C[C@H](CO)N1C[C@H](C)[C@@H](CN(C)Cc2ccc(C(F)(F)F)cc2)Oc2ccc(NC(=O)Cn3cnnn3)cc2CC1=O,-2[16.7 µM],-11
CCCN1C[C@@H](C)[C@H](OC)CN(C)C(=O)c2ccc(NC(=O)Nc3cccc(F)c3)cc2OC[C@@H]1C,3[16.7 µM],-5
O=C(NCc1ccc(F)cc1)[C@H]1C[C@H]2C(=O)N[C@@H](Cc3ccccc3)C(=O)N2[C@H]1c1ccc(O)cc1,-9[16.7 µM],-3
CO[C@H]1CN(C)C(=O)c2cc(NC(=O)Cc3ccccc3)ccc2OC[C@@H](C)N(CC2CC2)C[C@H]1C,-3[16.7 µM],-2
COc1ccc(NC(=O)Nc2ccc3c(c2)C(=O)N([C@H](C)CO)C[C@@H](C)[C@H](CN(C)S(=O)(=O)c2ccc(OC)cc2)OCCCC[C@@H](C)O3)cc1,1[16.7 µM],-4
COC(=O)[C@]1(CCC(=O)OC(C)(C)C)N=C(c2ccc(OCCCO)cc2)O[C@@H]1c1ccccc1N=[N+]=[N-],10[16.7 µM],-11
COc1cccc(S(=O)(=O)N[C@@H]2CC[C@H](CC(=O)NCc3ccncc3)O[C@H]2CO)c1,5[16.7 µM],-8
CC(C)NC(=O)N(C)C[C@@H]1Oc2ccc(NS(=O)(=O)c3cn(C)cn3)cc2C(=O)N([C@@H](C)CO)C[C@@H]1C,7[16.7 µM],-8
NCC[C@@H]1CC[C@@H](NS(=O)(=O)Cc2ccccc2)[C@H](CO)O1,-3[16.7 µM],-5
CC(C)NC(=O)Nc1ccc2c(c1)C(=O)N(C)[C@@H]1CC[C@@H](CC(=O)NCC(F)(F)F)O[C@@H]1CO2,-8[16.7 µM],-2
C[C@@H]1CCCCO[C@H](CN(C)Cc2ccc(Cl)c(Cl)c2)[C@@H](C)CN([C@H](C)CO)C(=O)c2cc(NC(=O)Nc3cccc4ccccc34)ccc2O1,6[16.7 µM],-22
Cc1ccc(S(=O)(=O)N(C)C[C@H]2Oc3ccc(NS(=O)(=O)c4ccc(F)cc4)cc3C(=O)N([C@H](C)CO)C[C@H]2C)cc1,-5[16.7 µM],6
C[C@H](CO)N1C[C@H](C)[C@@H](CN(C)Cc2ccc(Oc3ccccc3)cc2)Oc2ccc(NC(=O)Nc3ccc(C(F)(F)F)cc3)cc2CC1=O,22[16.7 µM],-3
CNC[C@H]1Oc2cc(-c3cncnc3)ccc2S(=O)(=O)N([C@@H](C)CO)C[C@@H]1C,13[16.7 µM],11
